# VCAM-1 augmentation – enhancers of VCAM-1 display on endothelial cells, imaging, high-content imaging, pooled HUVEC, TNFa stimulus (AID 457); 0.2% of 10,000 active; Pooled HUVEC, TNFa-induced VCAM-1 immunofluorescence imaging; hits of this screen are not shown here; calls only;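 active = a top-ranked rise in VCAM-1 staining upheld on image or statistical review; inactive = the rest, including candidates rejected on review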;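 also: compounds tested at 5 µM in the well; cells exposed to compound for 24 hours before fixing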
# VCAM-1 inhibition – inhibitors of TNFa-induced VCAM-1 surface display, cell-based, plate reader, pooled HUVEC, TNFa stimulus (AID 454); HUVEC TNFa-induced VCAM-1 surface immunofluorescence, plate reader; numbers were filed only for top-ranked candidate wells; inhibition, % at 5 µM; 0.2% of 10,000 active;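 active = compound among top-ranked inhibitors of TNF-induced VCAM-1 adhesion protein staining, with the hit upheld by image or statistical review; inactive = the rest, including hits rejected on review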;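 also: 0% = TNFa with vehicle and 100% = cells without TNFa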
# VCAM-1 imaging – inhibitors of TNFa-induced VCAM-1 surface display, imaging, high-content imaging, pooled HUVEC, TNFa stimulus (AID 456) | HUVEC TNFa-induced VCAM-1 surface expression, immunofluorescence imaging; numbers were filed only for top-ranked candidate wells | inhibition, % at 5 µM; hits with a dose series show IC50 in µM | 0.2% of 10,000 active;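 active = top tenth filtered wells with inhibition above zero that passed visual or statistical confirmation; inactive = the rest, including hits rejected on review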;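 also: 0% = stimulated vehicle wells and 100% = unstimulated cells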
# FPRL1 binder – human FPRL1 ligands by binding competition, primary screen, cell-based, FPR counter-screen, flow cytometry; 0.3% of 24,000 active; FPRL1-expressing cells, fluorescent ligand binding inhibition; inhibition, %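 (tested at 6.7 µM)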; N-formyl peptide receptor 2 (Homo sapiens), P25090;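 also: 0% = buffer alone and 100% = receptor blocker peptide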
# Target sequence (P25090 whole entry, looked up): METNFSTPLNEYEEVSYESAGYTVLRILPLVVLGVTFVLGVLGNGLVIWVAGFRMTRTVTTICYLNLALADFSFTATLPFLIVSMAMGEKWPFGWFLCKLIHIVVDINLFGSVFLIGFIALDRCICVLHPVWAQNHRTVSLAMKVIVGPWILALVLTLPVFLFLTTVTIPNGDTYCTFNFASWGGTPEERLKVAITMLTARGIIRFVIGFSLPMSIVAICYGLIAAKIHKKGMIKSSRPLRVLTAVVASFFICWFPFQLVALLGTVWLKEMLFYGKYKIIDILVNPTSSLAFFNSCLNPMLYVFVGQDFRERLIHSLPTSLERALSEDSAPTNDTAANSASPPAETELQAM
# FPR ligand – human FPR ligands by binding competition, primary screen, cell-based, FPRL1 counter-screen, flow cytometry. fMet-Leu-Phe receptor (Homo sapiens), P21462. FPR-expressing cells, fluorescent ligand binding. inhibition, %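 (tested at 6.7 µM)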. 0.74% of 24,000 active. AID 440, 2006;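 also: 0% = buffer wells and 100% = receptor blocker peptide wells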
# Target sequence (P21462 whole entry, looked up): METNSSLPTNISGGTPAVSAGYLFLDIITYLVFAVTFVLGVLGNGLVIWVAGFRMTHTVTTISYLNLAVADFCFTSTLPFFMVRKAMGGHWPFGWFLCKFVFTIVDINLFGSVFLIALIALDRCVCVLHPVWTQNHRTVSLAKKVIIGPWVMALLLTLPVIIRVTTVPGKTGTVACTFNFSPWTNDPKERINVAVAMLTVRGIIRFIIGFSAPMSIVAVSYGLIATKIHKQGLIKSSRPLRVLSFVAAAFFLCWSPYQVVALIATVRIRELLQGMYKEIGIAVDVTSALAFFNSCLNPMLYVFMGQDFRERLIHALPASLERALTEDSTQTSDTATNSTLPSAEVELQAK
# An asterisk follows results filed as active; i = inactive; . = not tested or not shown.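 The calls were made as follows, unless noted: active = mean above 30%; inconclusive = self-fluorescent; inactive = the rest.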 The list is partial. The share of hits here may be higher or lower than overall.
SMILES,VCAM-1 augmentation,VCAM-1 inhibition,VCAM-1 imaging,FPRL1 binder,FPR ligand
COc1ccc(C)cc1S(=O)(=O)N(CC(=O)O)c1ccccc1,i,i,i,-2.4,10.5
CC(=O)Nc1ccc(NC(=O)Oc2ccccc2)cc1,.,.,.,7.2,2.6
CCOC(=O)c1ccc(NC(=O)CCc2nc(-c3ccc(C)cc3)no2)cc1,i,i,i,2.7,2.2
CCOc1cc(C2C(C#N)=C(N)Oc3n[nH]c(-c4ccccc4)c32)ccc1O (stereo unspecified),.,.,.,3.5,25.6
C#CCN(C)Cc1ccccc1,i,i,i,4.4,0.4
CCOc1ccc(C(C)=O)cc1N1C(=O)C2C3C=CC(C3)C2C1=O (stereo unspecified),.,.,.,0.2,9.4
O=S(=O)(Nc1ccc2c(c1)OCO2)c1ccc(Br)s1,i,i,i,-7.5,3.6
Cc1cc(NC(=O)CSc2ccc3nnc(-c4ccc(Cl)cc4)n3n2)no1,.,.,.,-4.7,-1.8
COc1ccc(N2CCN(C(=O)CCCn3c(=S)[nH]c4cc5c(cc4c3=O)OCO5)CC2)cc1,.,.,.,0.2,2.5
O=C(O)C1CC(=O)N(c2ccc(Br)cc2)C1 (stereo unspecified),i,i,i,0.1,-0.7
COc1ccc(C2C(=O)N(C3CCCCC3)CC(=O)N2CCc2ccccc2)cc1OC (stereo unspecified),.,.,.,-1.1,-5.8
Cc1ccn2cc(CCNC(=O)CC(C)(C)C)nc2c1,i,i,i,1.6,-1.2
COc1cccc(-n2ccnc2SCC(=O)Nc2cc(OC)ccc2OC)c1,.,.,.,5.1,0.8
Cc1ccc2cc(CCNC(=O)c3ccc(Br)o3)c(=O)[nH]c2c1,.,.,.,1.6,2.0
Cc1ccccc1-c1nc(CS(=O)(=O)CC(=O)NCCN2CCOCC2)c(C)o1,.,.,.,1.4,-7.6
CC(C)OC(=O)CSc1nnc(-c2ccc(O)cc2)n1Cc1ccccc1,i,i,i,-3.9,-2.0
C=CCOc1ccc(C2N3CC4(C)CN2CC(CCC)(C3)C4=O)cc1 (stereo unspecified),.,.,.,2.0,5.4
COc1cccc(OCc2nc3c4cnn(-c5ccccc5)c4ncn3n2)c1,i,i,i,4.6,2.9
COc1ccc(OC)c2[nH]c(=O)c(CCNS(=O)(=O)c3ccccc3)cc12,.,.,.,6.7,2.2
COc1ccc2c(c1)CCc1c(C(=O)NCCN3CCOCC3)noc1-2,.,.,.,19.4,0.6
O=C(Nc1sc2c(c1C(=O)NCc1ccco1)CCCC2)c1ccc2c(c1)OCO2,i,i,i,1.9,-9.8
Cc1cc(N)c(NC2=CC(=O)CC(C)(C)C2)cc1C,.,.,.,-0.9,-1.8
O=C(Nc1ccc2c(c1)OCCO2)C1CCCN1S(=O)(=O)c1cccc2cccnc12 (stereo unspecified),i,i,i,-3.7,-5.0
COc1ccc(/C(O)=C2/C(=O)C(=O)N(CCCN(C)C)C2c2ccc(C)o2)cc1Cl (stereo unspecified),.,.,.,4.1,-3.8
COc1ccc(-c2nc(CSCC(=O)N3CCN(C4CCCCC4)CC3)c(C)o2)cc1OC,.,.,.,-0.9,-3.6
# Next entries:
SMILES,VCAM-1 augmentation,VCAM-1 inhibition,VCAM-1 imaging,FPRL1 binder,FPR ligand
CSc1nc(C)cc(Oc2ccc(=O)n(C)n2)n1,i,i,i,7.2,5.1
Cn1c2ccccc2c2c(C(=O)O)cn(C3CCCC3)c(=O)c21,.,.,.,-3.6,16.0
Cc1ccc(/C=c2\sc3nc(-c4ccco4)nn3c2=O)o1,.,.,.,2.0,-0.6
CC(c1ccccc1)N1CC(C(=O)NC2CCCC2)CC1=O (stereo unspecified),.,.,.,-2.6,0.7
COc1ccc(N(CC(=O)NC2CCCC2)C(=O)Cn2nnc(-c3ccc(C)cc3)n2)cc1,i,i,i,8.6,6.8
O=C(O)C1CCCCC1C(=O)Nc1cc(Cl)ccc1Cl (stereo unspecified),.,.,.,-5.9,-9.1
COc1cc(S(=O)(=O)n2nnc3ccccc32)c(OC)cc1Cl,i,i,i,-5.0,-4.7
COc1ccc(C(=O)N2CCCCC2)cc1S(=O)(=O)Nc1ccccc1,.,.,.,4.9,-4.1
CSc1ccccc1NC(=O)c1cc(-c2cccs2)on1,.,.,.,-2.5,-2.0
Cc1noc(C)c1S(=O)(=O)N1CCC(C(=O)NCCN2CCC(C)CC2)CC1,.,.,.,-0.3,1.7
CC1CC(C(O)c2ccccn2)C(=O)C(C(O)c2ccccn2)C1 (stereo unspecified),.,.,.,-2.0,-6.8
COCc1cc(C)c2c(N)c(C#N)sc2n1,i,i,i,-1.6,-5.0
COc1ccc(N(C(=O)c2ccco2)C(C(=O)NC2CCCC2)c2ccc(N(C)C)cc2)cc1OC (stereo unspecified),i,i,i,27.5,0.6
COc1ccc(N2CCN(Cc3cc(=O)oc4cc(C)c(Cl)c(C)c34)CC2)cc1,i,i,i,-9.7,2.4
CCOC(=O)C1CCN(C(=O)CC(NS(=O)(=O)c2ccc(OC)cc2)C(C)C)CC1 (stereo unspecified),.,.,.,3.9,-4.2
Cc1cc(NC(=O)C2CC(=O)OC2c2ccccc2)no1 (stereo unspecified),.,.,.,6.1,-5.7
COc1ccc(-c2nc(C#N)c(N3CCN(c4ccccc4)CC3)o2)cc1,i,i,i,-6.6,-0.4
O=C(Cc1c(C(=O)O)[nH]c2ccccc12)NCCN1CCN(c2ccccc2F)CC1,.,.,.,6.5,-5.3
O=C(O)CSC(NC(=O)c1cccnc1)(C(F)(F)F)C(F)(F)F,.,.,.,4.9,0.6
COc1ccc(Oc2c(C)oc3c(CN4CCOCC4)c(O)ccc3c2=O)cc1,.,.,.,-7.8,-7.2
O=c1c2ccccc2n(Cc2ccc(Cl)cc2)c(=O)n1Cc1ccco1,.,.,.,-3.1,1.4
CCOCCCNC(=O)c1[nH]c(C)c(C(C)=O)c1C,.,.,.,0.7,-0.1
CCOC(=O)N1CCN(C(=O)c2sc3nc(-c4ccc(F)cc4)cn3c2C)CC1,.,.,.,-15.0,0.0
C=CCc1cc(C(=O)N2CCCCC2)ccc1O,i,i,i,-4.4,-6.1
COc1cc(-c2nnc(SCC(=O)c3ccc(C)cc3)o2)cc(OC)c1OC,i,i,i,-10.9,-4.4
# Further entries.
SMILES,VCAM-1 augmentation,VCAM-1 inhibition,VCAM-1 imaging,FPRL1 binder,FPR ligand
CC(=O)c1ccc(OCC(O)CN2CCN(CCO)CC2)cc1 (stereo unspecified),i,i,i,-2.2,-7.2
Cc1ccc(NC(=O)Cn2cccc2)c(Br)c1,.,.,.,-0.8,2.3
Cn1c(=O)oc2cc(S(=O)(=O)NCCC(=O)NC3CCCC3)ccc21,.,.,.,-8.4,-13.8
COc1ccc(OCc2nnc3n2N=C(c2ccc(OC)cc2)CS3)cc1,.,.,.,-1.4,1.9
CCOC(=O)C1CCN(c2c(NC3CCCCCCC3)c(=O)c2=O)CC1,i,i,i,3.2,-4.9
CCOCCCNC(=O)C(c1ccc(Cl)cc1)N1CCN(c2ccccc2)CC1 (stereo unspecified),.,.,.,6.5,4.7
CC(C)Oc1ccc(/C(O)=C2/C(=O)C(=O)N(CCCN3CCOCC3)C2c2ccncc2)cc1 (stereo unspecified),.,.,.,-0.3,-9.5
COc1ccccc1S(=O)(=O)Cc1ccc(C(=O)N2CCCC2)o1,.,.,.,-8.1,-7.0
O=C(c1ccco1)N1CCN=C1SCc1ccc(F)cc1,.,.,.,-2.8,2.5
COc1ccc(OC)c(C2CC(=O)C3=C(C2)NC(=O)CC3c2ccc(O)c(OC)c2)c1 (stereo unspecified),.,.,.,0.8,-2.3
Cn1c(=O)c2c(nc(Oc3ccc4c(c3)OCO4)n2Cc2ccc(F)cc2)n(C)c1=O,i,i,i,3.9,10.3
O=C(C1CCN(S(=O)(=O)c2cccc3cccnc23)CC1)N1CCN(Cc2ccccc2)CC1,.,.,.,2.9,-2.8
N#CCSc1nc2ccccc2c(=O)n1CCC(=O)NCCc1ccccc1,.,.,.,1.7,-7.3
C=CCc1ccccc1OCCCCN1CCCC1,i,i,i,-0.6,-5.4
Cn1c(Cn2c(=O)sc3ccccc32)nnc1SCC(=O)NCc1ccc(F)cc1,.,.,.,2.0,0.6
CCOc1ccc(N(CC(=O)NC2CCCC2)S(=O)(=O)c2c(C)noc2C)cc1,.,.,.,-7.7,-1.4
C=CCn1c(N)c(C(=O)OC(C)(C)C)c2nc3ccccc3nc21,i,i,i,-12.2,5.4
O=C(Cn1cnc2c(nnn2-c2ccc(F)cc2)c1=O)NCc1ccco1,i,i,i,-0.3,1.2
CCC(=O)c1ccc(N2CCN(C(=O)c3ccc(Br)cc3)CC2)c(F)c1,.,.,.,-2.4,-4.5
COc1ccc(OCC(=O)Nc2ccc(N3CCOCC3)c(Cl)c2)cc1,i,i,i,3.7,5.0
CC(c1cccnc1)N(C(=O)Nc1ccccc1)C1CCCCC1 (stereo unspecified),.,.,.,0.3,4.3
COc1ccc(-c2cc(C(F)(F)F)nc(N3CCN(c4ccccc4)CC3)n2)cc1OC,.,.,.,16.5,68.4*
O=C(C1CCCN(S(=O)(=O)c2ccc(F)cc2)C1)N1CCCC1 (stereo unspecified),.,.,.,10.4,1.2
CC1(C)CC(=O)c2cnc(NC(=O)CSc3nc4ccccc4o3)nc2C1,i,i,i,3.9,-4.4
CCN1C(=O)/C(=C/N2CCc3ccccc32)SC1=S,i,i,i,15.7,11.0

# An excerpt from above, reduced to FPR ligand and VCAM-1 augmentation:
SMILES | FPR ligand | VCAM-1 augmentation
N#CCSc1nc2ccccc2c(=O)n1CCC(=O)NCCc1ccccc1 | -7.3 | .
C=CCc1ccccc1OCCCCN1CCCC1 | -5.4 | i

# By substructure, those above with a thiophene ring, fused or not
SMILES,VCAM-1 augmentation,VCAM-1 inhibition,VCAM-1 imaging,FPRL1 binder,FPR ligand
O=S(=O)(Nc1ccc2c(c1)OCO2)c1ccc(Br)s1,i,i,i,-7.5,3.6
O=C(Nc1sc2c(c1C(=O)NCc1ccco1)CCCC2)c1ccc2c(c1)OCO2,i,i,i,1.9,-9.8
CSc1ccccc1NC(=O)c1cc(-c2cccs2)on1,.,.,.,-2.5,-2.0
COCc1cc(C)c2c(N)c(C#N)sc2n1,i,i,i,-1.6,-5.0

# Remaining list, next part:
SMILES,VCAM-1 augmentation,VCAM-1 inhibition,VCAM-1 imaging,FPRL1 binder,FPR ligand
O=C(c1cc(-c2cccc(O)c2)on1)N1CCN(C(c2ccccc2)c2ccccc2)CC1,i,i,i,-8.2,2.5
COc1cccc(-c2cc(C(F)(F)F)n3nc(N)nc3n2)c1,i,i,i,-5.6,-17.3
O=C(Cn1nnc(-c2ccc(S(=O)(=O)N3CCCC3)cc2)n1)NCC1CCCO1 (stereo unspecified),i,i,i,4.4,-6.3
COc1ccccc1S(=O)Cc1ccc(C(=O)NC2CCCC2)o1 (stereo unspecified),.,.,.,12.5,5.3
CCC1(NC(C)=O)CC2CC1CC2NC(C)=O (stereo unspecified),i,i,i,1.2,-5.8
COc1ccccc1CCNC(=O)CSc1nc(-c2ccco2)cc(C(F)(F)F)n1,.,.,.,-1.6,-3.3
Cc1nnc(N(C)C(=O)Cc2ccc3c(c2)OCO3)s1,i,i,i,-1.4,5.1
COCCNC(=O)C(c1cccs1)N(C(=O)Cn1nnc2ccccc21)c1ccccc1 (stereo unspecified),i,i,i,-3.9,-4.0
COC(=O)C1(C)NC(=O)c2ccccc2N1 (stereo unspecified),.,.,.,5.3,-0.5
CN(C(=O)COc1cc(=O)n(C)c2ccccc12)c1cccc(Cl)c1,.,.,.,-0.4,2.5
O=C(NCC1COc2ccccc2O1)C1CCCN(S(=O)(=O)c2cccc3cccnc23)C1 (stereo unspecified),.,.,.,-5.3,1.1
Cn1c(C(=O)N2CCCc3ccccc32)cc2c(=O)n3ccccc3nc21,.,.,.,-9.0,-0.6
O=C(CCN1CCN(c2ccccc2F)CC1)c1ccc(Br)cc1,.,.,.,-5.0,-4.6
COC(=O)c1ccc2c(c1)N(Cc1nc(-c3ccc(Cl)cc3)oc1C)C(=O)C1CCCN21 (stereo unspecified),.,.,.,-5.0,0.5
COC(=O)Nc1sc2c(c1C(N)=O)CCCCCC2,i,i,i,-5.1,-6.8
O=C1c2ccccc2C(Nc2ccc(Cl)cn2)N1c1cccnc1 (stereo unspecified),.,.,.,-2.2,-2.1
CC(C)C(NC(=O)C1CCCCC1)C(=O)N1CCN(c2ccc(F)cc2)CC1 (stereo unspecified),.,.,.,7.9,-0.8
O=C(O)c1ccccc1C(=O)N1CC=C(c2ccccc2)CC1,.,.,.,-2.0,4.1

# Source: PubChem BioAssay
